High-throughput results (PubChem)
eIF4H FP inh: human eIF4H binding inhibitors, primary screen, translation initiation inhibitor project, biochemical, uHTS, fluorescence polarization. AID 2012, 2009. inhibition, % at 35 µM. Eukaryotic translation initiation factor 4H (Homo sapiens), Q15056. eIF4H fluorescence polarization binding assay. 0.94% of 290,000 active;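 active means 50% or more with normal probe brightness, or confirmed in later tests; inconclusive means above 50% with abnormal brightness, or retests that disagree; inactive means below 50% or failed in later tests; about a fifth of its hits are not listed in these tables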;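 further: calls also rest on retests at 20 µM and on dose response follow-up; 0% = protein and probe with vehicle and 100% = probe without protein; strong numbers were not always called active; many hits fall short of the cut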
PABP FP inh: PABP poly(A) RNA binding inhibitors, primary screen, biochemical, fluorescence polarization, uHTS; inhibition, % at 35 µM; 1% of 290,000 active;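 active means 50% or more with normal probe brightness, or confirmed in later tests; inconclusive means above 50% with abnormal brightness, or retests that disagree; inactive means below 50% or failed in later tests; about a fifth of its hits are not listed in these tables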;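 further: calls also rest on retests at 20 µM and on dose response follow-up; controls were probe without protein and protein plus probe with vehicle; some compounds called inactive have numbers as strong as hits; many hits fall short of the cut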
Target sequence (P11940 whole entry, looked up): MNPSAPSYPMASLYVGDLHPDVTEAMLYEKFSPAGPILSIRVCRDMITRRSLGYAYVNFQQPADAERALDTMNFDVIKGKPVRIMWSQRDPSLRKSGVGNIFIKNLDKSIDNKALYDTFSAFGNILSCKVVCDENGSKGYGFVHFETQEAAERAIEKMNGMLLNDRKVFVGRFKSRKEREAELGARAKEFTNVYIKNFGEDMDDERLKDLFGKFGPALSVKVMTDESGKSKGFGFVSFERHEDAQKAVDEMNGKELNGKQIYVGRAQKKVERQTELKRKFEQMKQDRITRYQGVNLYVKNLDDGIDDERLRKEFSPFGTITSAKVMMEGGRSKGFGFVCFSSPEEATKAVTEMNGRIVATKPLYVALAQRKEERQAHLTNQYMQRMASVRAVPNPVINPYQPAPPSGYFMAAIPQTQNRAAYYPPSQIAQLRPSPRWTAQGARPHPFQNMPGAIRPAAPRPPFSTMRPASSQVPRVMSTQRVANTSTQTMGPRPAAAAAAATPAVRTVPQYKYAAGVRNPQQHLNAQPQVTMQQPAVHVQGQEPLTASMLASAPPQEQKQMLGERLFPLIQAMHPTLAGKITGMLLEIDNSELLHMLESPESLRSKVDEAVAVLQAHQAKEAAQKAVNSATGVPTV
Rce1 inh: yeast Rce1p protease inhibitors, primary screen, biochemical, fluorescence, cell-free homogeneous; yeast membranes, quenched prenylated peptide cleavage fluorescence; calls only; CAAX prenyl protease 2 (Saccharomyces cerevisiae (strain ATCC 204508 / S288c)), Q03530; 0.27% of 290,000 active;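 active means fall in fluorescence gain of 50% or more versus controls, with final raw signal at or below 3038400; inconclusive means same 50% fall but final raw signal above 3038400; inactive means fall in fluorescence gain under 50%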;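 further: plate controls were neutral control wells for no effect and wells lacking membranes for full effect; tested at 10 µM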
CSC inhib: cancer stem cell viability inhibitors, primary screen, luminescence | cancer stem cell-like cells viability | inhibition, % at 7.5 µM | 1.1% of 300,000 active;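 active means mean at 75% or more and at least half the replicates too; inconclusive means mean and replicates disagree; tested in HMLE shEcad cells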;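 further: 0% = median of negative and 100% = median of positive control wells; the first replicate is given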
UUG fidelity: modulators of yeast start codon fidelity, primary screen, whole organism, S. cerevisiae, single point, plate reader | activity score, % at 18.7 µM | S. cerevisiae UUG-firefly luciferase reporter, luminescence/redox ratio | 0.13% of 350,000 active;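 active means replicate mean at a twofold rise or more, about +100% in these data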;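 further: firefly luciferase made from a UUG start codon reports start codon fidelity; reporter light over untreated wells divided by growth signal over untreated wells; some hits fall short of that in this replicate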
MT1-MMP act inh: blockers of MT1-MMP proenzyme processing, primary screen, HT1080 RFP-PRO-GFP cells, GFP/RFP fluorescence. GFP/RFP ratio fluorescence, overnight; percent of plate control window, DMSO zero. AID 651647, 2012. 0.061% of 360,000 active. GFP/RFP ratio change, % at 20 µM. Matrix metalloproteinase-14 (Homo sapiens), P50281;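 active means GFP/RFP ratio change of at least 30% with cell ATP level not reduced by more than half and red fluorescence within 50% of control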; further: strong numbers were not always called active
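Test system: HT1080 RFP-PRO-GFP cells; Benchmarks: DMSO and RFP-L50D-GFP cell wells; Timing: cells overnight before dosing, compound overnight, 37 °C, 5% CO2; Compound: one 20 µM compound dose with 1% DMSO; Read-out: GFP/RFP fluorescence ratio.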
Env fusion inh: inhibitors of HIV-1 Env-driven cell-cell fusion, primary screen, HeLa-JRFL effector, CEM21 target cells, luciferase; inhibition, % at 12.3 µM; 1.1% of 360,000 active; AID 651610, 2012;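 active means mean replicate inhibition score of at least 50 and every replicate individually at or above 50; inconclusive means only one of the two criteria met; inactive means mean below 50 and not all replicates reaching 50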;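 further: 0% = plate neutral controls and 100% = maraviroc near 300 nM; one replicate is shown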
eIF4H FP inh retest: recorded beside eIF4H FP inh, whose call it bears; inhibition, %; compound at 20 µM; confirmation average;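 mean of two retest wells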
PABP FP inh retest: recorded beside PABP FP inh, whose call it bears; inhibition, %; compound at 20 µM; confirmation repeats;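 mean of two retest wells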
MT1-MMP act inh RFP: also measured in MT1-MMP act inh; calls as there; RFP signal change, %; measured here: RFP expression control read;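 0 = vehicle wells; hits needed this value within 50% of zero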
An asterisk follows results filed as active; i = inactive; ? = inconclusive; . = no result given; + = active, no number; & = joins results of further samples. Not all compounds are listed; count on the stated rates, not on these rows.

SMILES	eIF4H FP inh	PABP FP inh	Rce1 inh	CSC inhib	UUG fidelity	MT1-MMP act inh	MT1-MMP act inh RFP	Env fusion inh	others
C[C@@H]1CN([C@H](C)CO)C(=O)c2cc(NC(=O)C3CCCCC3)ccc2O[C@@H]1CN(C)Cc1ccncc1	.	.	.	5	-14&4	-3	2	13
COc1ccc(N2CCN(C(=O)COC(=O)COc3ccc(C#N)cc3)CC2)cc1	.	.	i	.	.	1	3	-8
COCc1nnc(NS(=O)(=O)c2ccc(NC(C)=O)cc2)s1	-2	10	i	-4	-15	6	4	.
CCCn1nc(C(=O)Nc2ccc3nc(C)sc3c2)c2ccccc2c1=O	3	-10	i	10	.	-9	-5	?
CCOC(=O)C(=CNc1ccc2c(c1)CCN2C(C)=O)C(=O)OCC	-4	2	.	-7	-4	1	1	-10
CCOc1ccc2c(c1)C(c1ccc(C)o1)=NNC(c1ccncc1)=N2	4	-4	i	-5	.	-5	-3	31
CCOC(=O)Cn1c(S(=O)(=O)Cc2cccc(F)c2)nc(-c2ccccc2)c1-c1ccccc1	-1	-3	i	29	-3	-12	-15	87*
Cc1cc(C(=O)NC2CCCc3c2cnn3-c2ccc(C(C)(C)C)cc2)n[nH]1 (stereo not given)	-14	8	i	10	-22	-3	-24	8
Cc1c(CNCC(C)c2ccccc2)c(C(=O)O)c(C)n1Cc1ccccc1 (stereo not given)	11	4	i	1	.	-3	-1	12
COc1ccc(CN2CN(S(=O)(=O)c3ccccc3)c3nc4ccccc4nc32)cc1	3	24	i	0	.	-3	-5	21
CCCNC(=O)c1oc2ccc3c(c2c1C)C(=O)CC(C)(C)O3	8	10	i	-9	-25	1	2	-325
CCOc1ccc(OCCC(=O)NNC(=O)c2cc(OC)c(OC)c(OC)c2)cc1	.	.	i	3	.	2	1	.
Cc1ccc(-c2ccc(/C=N/N3C(=O)C4C5C=CC(CC5)C4C3=O)o2)c([N+](=O)[O-])c1 (stereo not given)	53*	58*	i	53	-11	4	1	12
O=C(c1cnn2c(C(F)(F)F)cc(-c3ccccc3)nc12)N1CCOCC1	4	-8	i	-4	1	17	3	.
CCc1nc(C)cn1S(=O)(=O)c1ccc(Cl)c(Cl)c1Cl	-7	6	i	8	-17	-2	-1	-24
CN(C)/N=C/C=C1\CC/C(=C\c2ccc(F)c(F)c2)C1=O	.	.	i	2	.	3	-1	8
O=C(O)C1CCN(C(=O)OCc2ccccc2)CC1	-4	-4	i	-9	15	-2	-7	.
Cc1ccc(S(=O)(=O)N2C=CC(C(F)(F)F)=NCC2)cc1	-9	-4	i	14	-15	0	3	0
O=C(O)c1ccccc1SC1CC(=O)N(c2ccc3c(c2)OCO3)C1=O (stereo not given)	33	1	i	6	-9	-12	-6	-6
CCOC(=O)C1CCN(S(=O)(=O)c2cn(C)cn2)CC1	0	6	i	8	-2	5	-1	-17
O=C(O)c1cc(O)ccc1O	.	.	.	.	-15	0	1	38
O=C(CN1CCC(NC(=O)c2ccc(Br)cc2)CC1)NCc1cccs1	-2	4	+	.	-7	2	-6	10
COc1cc(-c2nc3cnccn3c2Nc2ccc(C)cc2)ccc1O	0	-2	i	-22	-3	29	13	.
CN(C)S(=O)(=O)c1cccc(NC(=S)N2CCCCC2CO)c1 (stereo not given)	2	6	i	-2	-30	1	0	-12
COc1ccc(C(=O)Nc2ccc3nc(N4CCCCC4)cc(C)c3c2)c(OC)c1	9	12	i	-10	.	.	.	.
CCC(=O)N1CCN(c2nnc(-c3ccccc3)c3ccccc23)CC1	6	-1	i	-19	-19	-1	-3	8
O=C(C1CCCN(S(=O)(=O)c2ccccc2[N+](=O)[O-])C1)N1CCN(c2ccccc2)CC1 (stereo not given)	-9	-11	i	34	.	4	-6	-38
O=C(COC(=O)c1cccc(F)c1)Nc1ccc2c(c1)OCCO2	.	.	.	0	-34	-2	0	.
CC(C)(C)Oc1ccccc1Nc1nc(NCCO)nc(N2CCCC2)n1	.	.	i	-8	6	8	-3	10
COc1ccc(CNS(=O)(=O)c2cc(-c3cc(C)no3)ccc2C)cc1OC	-7	-3	i	-7	-14	3	-8	-1
COc1cc(/C=C/c2ccc3cccc(O)c3n2)cc(Br)c1OC	13	2	i	52	-11	1	-11	-57
O=c1c2ccccc2c(/C=N/c2n[nH]c(CCCO)n2)c(O)n1-c1ccccc1Cl	5	30	i	15	.	-5	-4	-11
CCC1(C)Cc2c(sc3nc(SCC(=O)O)[nH]c(=O)c23)CO1 (stereo not given)	-8	-1	i	3	5	12	2	12
CN(c1ccccc1)S(=O)(=O)c1ccc(C(=O)N2CCN(c3ccccc3F)CC2)cc1	.	.	.	0	-9	-1	-9	6
COC(=O)C1=C(Nc2ccc(C)cc2)C=C(C)C(C(=O)OC)C1c1ccc(F)cc1 (stereo not given)	-1	-13	i	61	-19	-9	-13	27
COc1ccc(C(=O)NC(=S)Nc2ccc(S(=O)(=O)Nc3cc(C)on3)cc2)cc1OC	-1	9	i	-14	-2	2	0	11
Cn1cccc1C(=O)NC(=O)COC(=O)CNS(=O)(=O)c1ccc(Br)cc1	15	22	i	2	-14	2	4	.
Cc1ccc(NC(=O)CN(C)C(=O)c2cc(C)on2)cc1	.	.	.	7	-14	-1	1	-28
CCCC(C)(C)C(=O)N1CCC1(C)C(=O)Nc1ccc(OC)c(OC)c1 (stereo not given)	.	.	.	.	5	-3	0	-9
CCOc1cc(S(=O)(=O)NC2CCCCC2)ccc1F	-3	-16	i	8	4	-5	-8	8
O=C(NCCCN1CCOCC1)c1ccc(NC(=O)C2COc3ccccc3O2)cc1 (stereo not given)	1	-7	i	2	0	3	4	10
CCn1c(SCC(=O)NC2CCS(=O)(=O)C2)nnc1-c1ccccc1 (stereo not given)	-4	8	i	-4	-16	0	-2	11
CC(=O)C1=C(c2ccccc2)NC(=O)NC1c1cccs1 (stereo not given)	4	1	i	-2	-10	-5	0	12
CSc1ncccc1C(=O)N1CCCC(C(=O)c2ccc3ccccc3c2)C1 (stereo not given)	-4	-2	i	-2	-6	-2	-7	3
Nc1ccn([C@@H]2O[C@H](CN=C3NS(=O)(=O)c4ccccc43)[C@@H](O)[C@H]2O)c(=O)n1	.	.	.	.	-12	5	5	26
O=C(/C=C/c1ccccc1)c1ccc2c(c1)OCO2	2	-2	i	9	-12	.	.	-16
CCC(C)(C)NC(=O)C1CCN(c2nc(C)cc(C)n2)CC1	-6	4	i	-5	2	18	6	-31
COc1ccc(CNC(=O)C2CCCN(S(=O)(=O)c3ccc4c(c3)C(C)(C)C(=O)N4C)C2)cc1 (stereo not given)	-2	2	i	-7	7	-3	-3	-3
CN(C(=O)c1ccc2c(c1)SC1=NS(=O)(=O)CCN12)C(c1ccccc1)c1ccccc1	-3	0	+	-1	.	0	-3	16
COC(=O)c1ccc(/C=C/C(=O)c2cccc(OC)c2)cc1	-15	-3	i	-12	.	-2	-1	-114
Cc1cc(C)cc(NC(=O)CCCN2C(=O)C(c3ccccc3)Oc3cccnc32)c1 (stereo not given)	.	.	i	-1	16	-2	-4	34
COc1ccccc1OCCn1cc(C(=O)C(C)C)c2ccccc21	-6	-4	i	4	-1	2	-6	29
Cc1nn(-c2nc(-c3ccco3)cc(C(F)(F)F)n2)c(C)c1Br	-4	2	i	.	-11	3	4	-153
O=C(O)C1CCN(C(=O)CSc2nnc(-c3ccccc3)o2)CC1	.	.	.	-12	-3	1	0	.
CC1(C)OC2C(CO)OC(n3cnc4c(=S)nc[nH]c43)C2O1 (stereo not given)	-2	-5	i	3	-21	0	2	0
On1c(-c2ccc(Cl)cc2)nc2ccccc21	9	12	i	7	.	1	0	-6
C/C(=N\NC(=S)Nc1ccc(C(C)C)cc1)c1ccc2c(c1)OCO2	8	2	i	7	.	1	0	6
CCNS(=O)(=O)c1ccc(CCC(=O)NC2CCCC2)cc1	-14	4	i	-2	.	5	6	6
CCN(c1ccccc1)S(=O)(=O)c1cc2c3c(c1)CCN3C(=O)CC2	.	.	i	10	-13	8	0	-20
Nc1ccc2c(c1)OCCOCCOCCOCCOCCO2	?	9	i	5	.	2	2	3

Following part:
SMILES	eIF4H FP inh	PABP FP inh	Rce1 inh	CSC inhib	UUG fidelity	MT1-MMP act inh	MT1-MMP act inh RFP	Env fusion inh	others
CCOC(=O)Cn1ccc(-c2ccccc2)c(C#N)c1=O	-6	-4	i	-2	.	2	1	5
CC(=O)Nc1ccc(S(=O)(=O)N2CCN(CC(=O)N3CCOCC3)CC2)cc1	-2	-3	i	2	-8	-2	-3	3
Cc1nc2ccc(NC(=O)[C@@H](NC(=O)c3c(F)cccc3F)C(C)C)cc2s1	.	.	.	-9	-35	-13	-1	-4
C=Cc1ccc(Cn2nc(-c3ccccc3)ccc2=O)cc1	-8	-4	i	28	9	7	3	-26
O=C1CCc2cc(S(=O)(=O)NCCC(=O)N3CCN(c4cccc(Cl)c4)CC3)ccc2N1	4	6	.	.	-9	3	-1	-3
CN(Cc1ccccc1)C(=O)c1[nH]cnc1C(=O)N[C@@H](CCCCNC(=O)OC(C)(C)C)C(=O)OC(C)(C)C	84*	5.1*	i	-9	21	0	0	.	eIF4H FP inh retest=76*;PABP FP inh retest=76*
CCCCC(=O)Nc1cccc(C(=O)N/N=C/c2ccc(OC)cc2OC)c1	-5	4	i	0	.	1	5	.
Cc1cc(NC(=O)c2ccc3c(c2)C(=O)N(C(C)(C)C)C3=O)no1	-6	14	i	0	.	-2	0	3
Cc1ccc(SCC(=O)Nc2cc(C)on2)cc1	0	-4	i	-6	-13	1	2	-26
Cc1cccc(OCc2nc(C#N)c(NCCN(C)C)o2)c1	-4	-9	i	-3	3	4	7	-4
Nc1cc(-c2nn[nH]n2)ccc1F	30	-4	i	-4	-2	.	.	.
CC1=Nc2cc(C(=O)NCC3CCCO3)ccc2Sc2ccc(C)cc21 (stereo not given)	-4	10	i	-16	-20	-16	-13	-376
Cc1cccc(C(=O)NCc2nnc(SCC(=O)NC3=NCCS3)n2C)c1	-7	7	i	5	-23	1	1	17
COc1cccc(C2/C(=C(/O)c3ccc4c(c3)CC(C)O4)C(=O)C(=O)N2c2nnc(C)s2)c1 (stereo not given)	-2	18	i	-6	-18	-2	2	-11
FC(F)(F)COc1nc(OCC(F)(F)F)nc(N2CCN(c3ccccc3)CC2)n1	-2	-5	i	7	-4	2	-14	.
CCOc1cc2c(cc1OCC)C(c1ccccc1OC)OC(=O)C2 (stereo not given)	8	7	i	-12	-7	1	3	.
S=c1[nH]c(-c2ccc(Cl)cc2)cs1	4	-7	i	4	.	-1	-2	-12

Three structures already listed, ordered by SMILES length, ascending:
SMILES	eIF4H FP inh	PABP FP inh	Rce1 inh	CSC inhib	UUG fidelity	MT1-MMP act inh	MT1-MMP act inh RFP	Env fusion inh	others
CC(=O)Nc1ccc(S(=O)(=O)N2CCN(CC(=O)N3CCOCC3)CC2)cc1	-2	-3	i	2	-8	-2	-3	3
Cc1nc2ccc(NC(=O)[C@@H](NC(=O)c3c(F)cccc3F)C(C)C)cc2s1	.	.	.	-9	-35	-13	-1	-4
O=C1CCc2cc(S(=O)(=O)NCCC(=O)N3CCN(c4cccc(Cl)c4)CC3)ccc2N1	4	6	.	.	-9	3	-1	-3
